Rango dissoc inh – prevents RanGTP from dissociating the Rango-importin beta complex. Potency, µM (series often up to 46.1 µM), for inactives: at the highest dose activity change, negative = inhibition. Biochemical FRET Rango-importin beta, RanGTP-induced dissociation. 340,000 tested, 0.071% active. O95149+P62826; active means falling FRET ratio curve, often poorly fitted, with flat reads before Ran was added; inconclusive means other falling curves, or compound fluorescence or quenching; inactive means flat or rising ratio curve;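 further: potency means the concentration at half of the fitted maximal effect; % of control where 0% means no effect; nearly all actives have a fitted effect of over 45% in size; -100% = wells without RanGTP and RCC1; the record marks most hits as doubtful in a second field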
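Recombinant Rango FRET biosensor (EYFP–snurportin 1 IBB–cerulean CFP10) at 0.1 uM premixed with 0.25 uM importin beta in PBS, 1 mM DTT, 0.02% Tween-20, 0.1% BSA. Compound added 5 min; RanGTP-RCC1 (0.6 uM Ran, 2 mM GTP, 0.2 uM RCC1) then triggers release, read at 45 min.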
Rango complex inh – inhibitors of Rango-importin beta complex formation; Q14974; Rango CFP/YFP FRET sensor + importin beta, 45 min; Potency, µM (titrated, usually from 92.2 µM), for inactives: top-dose inhibition of complex formation; 340,000 tested, 0.031% active; active = rising FRET ratio curve, often small or poorly fitted; inconclusive = mostly compound fluorescence or quenching in the first reads; inactive = flat curves in all reads;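 further: potency means the concentration at half of the fitted maximal effect; 0% = DMSO wells and 100% = buffer wells lacking importin beta; nearly all actives have a fitted effect of over 15% in size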
Target sequence (Q14974 whole entry, looked up): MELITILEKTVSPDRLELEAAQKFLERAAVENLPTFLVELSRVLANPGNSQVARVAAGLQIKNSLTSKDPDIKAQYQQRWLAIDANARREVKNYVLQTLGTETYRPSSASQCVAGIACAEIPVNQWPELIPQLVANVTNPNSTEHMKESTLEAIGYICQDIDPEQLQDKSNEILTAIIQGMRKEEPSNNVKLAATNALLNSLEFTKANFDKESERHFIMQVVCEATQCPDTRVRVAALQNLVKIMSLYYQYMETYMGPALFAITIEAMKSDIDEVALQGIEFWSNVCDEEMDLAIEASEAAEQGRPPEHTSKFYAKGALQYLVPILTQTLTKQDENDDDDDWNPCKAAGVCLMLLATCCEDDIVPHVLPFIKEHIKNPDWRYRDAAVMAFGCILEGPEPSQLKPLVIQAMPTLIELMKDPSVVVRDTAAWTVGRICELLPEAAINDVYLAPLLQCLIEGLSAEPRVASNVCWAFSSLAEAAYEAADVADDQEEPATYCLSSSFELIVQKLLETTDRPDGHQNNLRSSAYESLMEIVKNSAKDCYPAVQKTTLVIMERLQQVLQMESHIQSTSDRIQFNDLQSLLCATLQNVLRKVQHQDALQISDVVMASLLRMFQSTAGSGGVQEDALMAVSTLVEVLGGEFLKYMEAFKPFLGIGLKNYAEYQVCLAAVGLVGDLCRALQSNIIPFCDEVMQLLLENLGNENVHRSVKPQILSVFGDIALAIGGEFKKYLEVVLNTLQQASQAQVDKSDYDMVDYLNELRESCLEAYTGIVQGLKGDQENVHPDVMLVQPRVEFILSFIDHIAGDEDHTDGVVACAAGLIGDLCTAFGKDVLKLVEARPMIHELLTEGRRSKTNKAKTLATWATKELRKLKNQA
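FRET biosensor (snurportin 1 IBB flanked by EYFP and cerulean), 50 nM, with compound 5 min, then 0.125 microM importin beta in PBS, 1 mM DTT, 0.02% Tween-20, 0.1% BSA. CFP/YFP ratio read after 45 min at room temperature; pre-read flags interference.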
GLA inh pH 4.5 – inhibitors of human alpha-galactosidase A at pH 4.5; purified enzyme, 4-MU-alpha-Gal fluorescence, pH 4.5; 230,000 tested, under 10 active; P06280; activity change, negative = inhibition, % at 105 µM; inconclusive = small, poorly fitted or top-dose-only inhibition, or a rising curve; inactive = flat fitted curve, though single readings scatter; no compound was filed as active;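 further: 0% = full activity with enzyme and -100% = basal without enzyme; dose as in the result columns while the protocol names 77 µM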
miR-21 reporter – miR-21 reporter, rising signal. HeLa miR-21 FLuc reporter, luciferase, 48 h. Potency, µM (highest dose often 38.3 µM), for inactives: top-dose reporter change, positive = more light. 340,000 tested, under 10 active. AID 2288; active = well fitted rising curve with a large enough effect; inconclusive = small, poorly fitted or top-dose-only effect; inactive = no such curve, though single readings can be large or run the other way;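 further: % of control where 0% means no effect; miR-21 action dims this reporter so a rising signal means less miR-21 action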
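Luminescence from a firefly luciferase reporter carrying a miR-21 binding site downstream, stably expressed under a CMV promoter in HeLa cells that make miR-21 endogenously, reports miRNA modulation after 48 h compound exposure up to approximately 40uM final.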
The depositor's hits bear a star; & = joins results of further samples; [ ] = dose if it differs, or a comment. These rows are one share of the data; the hit share may differ from the screen's.

Sample of the layout (4 entries):
Screening COc1ccccc1CN1CC(C(=O)NCc2cc(C)on2)CCC1=O (configuration not stated) returned Rango dissoc inh -15%, Rango complex inh -3.4% and miR-21 reporter -8%.
`O=C(Nc1ccccc1Cl)C1CCN(Cc2cnn(-c3ccccc3)c2-n2cccc2)CC1` gave Rango dissoc inh 1%, Rango complex inh -0.7%, GLA inh pH 4.5 -9 and miR-21 reporter 16%.
Screening CCOC(=O)N1CCC(NC(=O)CC2C(=O)NCCN2Cc2cccc(F)c2F)CC1 (configuration not stated) returned Rango dissoc inh 13%, Rango complex inh -0.6% and miR-21 reporter -1%.
`O=C(NCc1ccncc1)C(=O)N/N=C/c1ccccc1OCc1ccccc1` gave Rango dissoc inh 0%, Rango complex inh 2.0%, GLA inh pH 4.5 4[21.1 µM] and miR-21 reporter -5%.

The whole of this part, from the start:
Screening COc1ccccc1CN1CC(C(=O)NCc2cc(C)on2)CCC1=O (configuration not stated) returned Rango dissoc inh -15%, Rango complex inh -3.4% and miR-21 reporter -8%.
`O=C(Nc1ccccc1Cl)C1CCN(Cc2cnn(-c3ccccc3)c2-n2cccc2)CC1` gave Rango dissoc inh 1%, Rango complex inh -0.7%, GLA inh pH 4.5 -9 and miR-21 reporter 16%.
Screening CCOC(=O)N1CCC(NC(=O)CC2C(=O)NCCN2Cc2cccc(F)c2F)CC1 (configuration not stated) returned Rango dissoc inh 13%, Rango complex inh -0.6% and miR-21 reporter -1%.
`O=C(NCc1ccncc1)C(=O)N/N=C/c1ccccc1OCc1ccccc1` gave Rango dissoc inh 0%, Rango complex inh 2.0%, GLA inh pH 4.5 4[21.1 µM] and miR-21 reporter -5%.
`Cc1ccc(CNC(=O)CCSCc2ccccc2F)cc1` gave Rango dissoc inh 4%, Rango complex inh inconclusive and miR-21 reporter -6%&-5%.
Cc1ccc(COc2ccc(C(=O)NN)cc2)cc1 was read as Rango dissoc inh -1%, Rango complex inh -0.1%, GLA inh pH 4.5 6 and miR-21 reporter -19%.
Screening NC(N)=NN=C(c1ccc(F)cc1)c1ccc(C(F)(F)F)cc1 returned Rango dissoc inh -18% and Rango complex inh 2.7%.
Screening O=C(Nc1cc(-c2nc3ncccc3o2)ccc1Cl)c1ccc([N+](=O)[O-])o1 returned Rango dissoc inh 29%, Rango complex inh 1.3% and miR-21 reporter -1%.
For CCOc1cccc(OCCCCN2CCOCC2)c1 the results were Rango dissoc inh 1%, Rango complex inh 0.9%, GLA inh pH 4.5 3 and miR-21 reporter -15%.
For Cc1ccc(C)c(Oc2cc(F)nc(N)n2)c1 the results were Rango dissoc inh 4%, Rango complex inh 0.6% and miR-21 reporter -7%.
For O=C(Nc1nc(-c2cccs2)c(-c2ccccc2)s1)c1ccco1 the results were Rango dissoc inh -4%, Rango complex inh -3.5%, GLA inh pH 4.5 4 and miR-21 reporter 12%.
Cc1cc(N/C(=N\S(=O)(=O)c2ccc(Cl)cc2)c2ccc(F)cc2)no1 was read as Rango dissoc inh -4%, Rango complex inh -0.5%, GLA inh pH 4.5 4 and miR-21 reporter -18%.
`Cc1cc(C(=O)N2CCN(S(C)(=O)=O)CC2)sc1-c1ccccc1` gave Rango dissoc inh -4%, Rango complex inh 10%, GLA inh pH 4.5 3 and miR-21 reporter -3%.
O=C(NCC(c1cccnc1)N1CCN(c2ccccc2)CC1)OCc1ccccc1 (configuration not stated) was read as Rango dissoc inh -2%, Rango complex inh 4.2%, GLA inh pH 4.5 4 and miR-21 reporter 10%.
For O=C1NC(c2ccccc2)Cc2ccncc21 (configuration not stated) the results were Rango dissoc inh 1% and Rango complex inh 0.4%.
`O=C(COc1ccc2c3c(c(=O)oc2c1)CCCC3)N1CCN(c2ccc(F)cc2)CC1` gave Rango dissoc inh inconclusive, Rango complex inh 4.1% and miR-21 reporter 1%.
`COc1ccc(CC(=O)NCc2ccccn2)cc1OC` gave Rango dissoc inh 1%, Rango complex inh 0.4%, GLA inh pH 4.5 -10 and miR-21 reporter -1%.
`O=C(CSCc1ccc(Cl)cc1)Nc1ccc(-c2nnc(-c3ccccc3)o2)cc1` gave Rango dissoc inh -8%, Rango complex inh -0.3%, GLA inh pH 4.5 2 and miR-21 reporter -12%.
For CC1CCN(S(=O)(=O)CCNC(=O)c2ccc3c(c2)OCO3)CC1 the results were Rango dissoc inh -9% and Rango complex inh 0.5%.
`C=CCC(CC=C)(C(=O)O)c1ccccc1` gave Rango dissoc inh 1%, Rango complex inh 1.0%, GLA inh pH 4.5 -8 and miR-21 reporter -1%.
For Cc1nc(=O)c(-c2ccccc2)c(C)n1-c1ccccc1 the results were Rango dissoc inh 38%, Rango complex inh -2.2% and miR-21 reporter 0%.
O=C(N/N=C/c1ccc(N2CCOCC2)c([N+](=O)[O-])c1)c1ccc(F)cc1 was read as Rango dissoc inh 8%, Rango complex inh 0.1%, GLA inh pH 4.5 7 and miR-21 reporter -5%.
CCCNC(=O)C1CCN(S(=O)(=O)c2ccc3[nH]c(=O)ccc3c2)CC1 was read as Rango dissoc inh 1%, Rango complex inh -4.6% and miR-21 reporter -2%.
`O=C(COC(=O)c1ccc(F)cc1F)NC(=O)Nc1ccc2c(c1)OCCO2` gave Rango dissoc inh 10% and Rango complex inh 4.0%.
For COc1cc(-c2ccc(NC(=O)c3ccc(C)cc3)c(OC)c2)ccc1NC(=O)c1ccc(C)cc1 the results were Rango dissoc inh 1%, Rango complex inh 2.4%, GLA inh pH 4.5 4 and miR-21 reporter -6%.
For Cn1c(=O)cc(N2CCOCC2)[nH]c1=O the results were Rango dissoc inh 1%, Rango complex inh -0.5%, GLA inh pH 4.5 8 and miR-21 reporter 1%.
For COc1ccc(N2C(=O)C3CCCN3C2c2ccccc2Cl)cc1 (configuration not stated) the results were Rango dissoc inh -9%, Rango complex inh -2.9%, GLA inh pH 4.5 -3 and miR-21 reporter -26%.
For COc1c(Br)cc(Br)cc1/C=N/NC(=O)c1ccncc1 the results were Rango dissoc inh -3%, Rango complex inh -3.3%, GLA inh pH 4.5 6 and miR-21 reporter 6%.
For COC(=O)c1c(-c2ccccc2)csc1NC(=O)c1c(-c2ccccc2)noc1C the results were Rango dissoc inh 5%, Rango complex inh 3.5%, GLA inh pH 4.5 -4 and miR-21 reporter 30%.
CCOC(=O)C1CCN(C(=O)COc2ccc(S(=O)(=O)NC(C)C)cc2)CC1 was read as Rango dissoc inh 1%, Rango complex inh -0.2%, GLA inh pH 4.5 2 and miR-21 reporter -1%.
`Cc1ccc(-n2c(SCC(=O)OC(C)C)nnc2-c2ccco2)cc1` gave Rango dissoc inh 14%, Rango complex inh 2.0%, GLA inh pH 4.5 4 and miR-21 reporter -8%.
Screening CCOC(=O)C1=C(N)Oc2ccc3ccccc3c2C1c1ccc(O)c(OC)c1 (configuration not stated) returned Rango dissoc inh 5%, Rango complex inh -2.9% and miR-21 reporter -6%.
For Cc1ccc(CNC(=O)CCc2nnc(Cc3ccc(-c4ccccc4)cc3)o2)o1 the results were Rango dissoc inh -10%, Rango complex inh 2.6%, GLA inh pH 4.5 3 and miR-21 reporter -1%.
Screening COc1ccc(-c2nc(SCC(=O)Nc3nccs3)c(-c3ccc(Cl)cc3)[nH]2)cc1 returned Rango dissoc inh -11%, Rango complex inh inconclusive, GLA inh pH 4.5 6 and miR-21 reporter 23%.
Screening CC(C)CNc1c(N)c(=O)oc2ccccc12 returned Rango dissoc inh -8%, Rango complex inh -2.8%, GLA inh pH 4.5 6 and miR-21 reporter -11%.
For C/C(Cc1ccccc1)=N\NC(=O)CNC(=O)COc1ccccc1 the results were Rango dissoc inh 0%, Rango complex inh 1.5%, GLA inh pH 4.5 -9 and miR-21 reporter 0%.
Screening C=CCN(CC=C)CCCOc1ccccc1C(=O)OC returned Rango dissoc inh 5%, Rango complex inh 1.5%, GLA inh pH 4.5 -15 and miR-21 reporter -5%.
For CN(CCCN1CCOCC1)C(=O)c1cc(COc2ccc(F)cc2F)on1 the results were Rango dissoc inh -7%, Rango complex inh -0.5% and miR-21 reporter -5%.
Cc1cc(C)n(CCNS(=O)(=O)c2ccccc2)n1 was read as Rango dissoc inh 11%, Rango complex inh -3.2% and miR-21 reporter 0%.
Screening O=C(Oc1c(-c2ccccc2Cl)oc2ccccc2c1=O)c1ccc(Cl)cc1 returned Rango dissoc inh inconclusive, Rango complex inh -3.4%, GLA inh pH 4.5 2 and miR-21 reporter -2%.
Screening Cc1cc(=O)n2c(C(=O)Nc3ccc(C(=O)OC(C)C)cc3)c(C(=O)Nc3ccccc3)sc2n1 returned Rango dissoc inh -8%, Rango complex inh -0.3%, GLA inh pH 4.5 -4 and miR-21 reporter 1%.
For O=C(CC1c2ccccc2Oc2ccccc21)NCc1ccco1 the results were Rango dissoc inh -3%, Rango complex inh 3.1%, GLA inh pH 4.5 2 and miR-21 reporter -1%.
For CCOC(=O)C1=C(C)NC(C)=C(C(=O)OCC)C1C(=O)OCC(=O)N1CCc2ccccc2C1 the results were Rango dissoc inh -6%, Rango complex inh 0.7%, GLA inh pH 4.5 -3 and miR-21 reporter -5%.
`COc1ccc(N(C)S(=O)(=O)c2cccc(C(=O)OCC(=O)N(C)c3ccccc3)c2)cc1` gave Rango dissoc inh -1% and Rango complex inh 1.4%.
`CCN(CC)c1ccc(NC(=O)Cn2c(C(C)NC(=O)c3ccccc3)nc3ccccc32)cc1` (configuration not stated) gave Rango dissoc inh -8%, Rango complex inh 1.2%, GLA inh pH 4.5 -15 and miR-21 reporter -7%.
For CC1CC(C)CN(CCCNC(=O)CN2C(=O)COc3ccc(S(=O)(=O)N4CCOCC4)cc32)C1 (configuration not stated) the results were Rango dissoc inh 13%, Rango complex inh -0.3% and miR-21 reporter 0%.
O=S(=O)(c1cccc(F)c1)N1CCC(CO)(Cc2cccc(F)c2)CC1 was read as Rango dissoc inh 12%, Rango complex inh -6.4%, GLA inh pH 4.5 4 and miR-21 reporter -1%.
Screening Cn1c(CSc2nc3ccccc3s2)nnc1SCC(=O)NCCCN1CCOCC1 returned Rango dissoc inh -11%, Rango complex inh 1.2%, GLA inh pH 4.5 -2 and miR-21 reporter -2%.
Screening CC1CN(Cc2ccccc2Cl)CC(C)O1 (configuration not stated) returned Rango dissoc inh -4%, Rango complex inh -1.9%, GLA inh pH 4.5 22 and miR-21 reporter -1%.
Screening CC(=O)c1ccc(N2CCN(c3ncccn3)CC2)c([N+](=O)[O-])c1 returned Rango dissoc inh 1%, Rango complex inh 2.1% and miR-21 reporter -23%.
For CCCN=C1N(CC)C[C@@H]2[C@@H]3C(=O)N(C)C(=O)[C@@H]3[C@](C)(C(=O)OC)N12 the results were Rango dissoc inh 9% and Rango complex inh -0.4%.
For C#CCNC(=O)C1=C[C@H](C2CCCCC2)[C@@H](CCCO)[C@H](OCC)O1 the results were Rango dissoc inh 7%, Rango complex inh 2.9%, GLA inh pH 4.5 -7 and miR-21 reporter -4%.
CCOC(=O)/C(C#N)=C1\CCCN1CC(N)=S was read as Rango dissoc inh 1%, Rango complex inh -1.0%, GLA inh pH 4.5 7 and miR-21 reporter -16%.
For CC(C)(C)NC(=O)NC(=O)CSc1n[nH]c(-c2ccccc2Br)n1 the results were Rango dissoc inh 0%, Rango complex inh -0.4%, GLA inh pH 4.5 -5 and miR-21 reporter 2%.
Screening CCC(=O)Nc1c(-c2ccccc2Cl)c(=O)c2ccccc2n1CC returned Rango dissoc inh 4%, Rango complex inh -0.1% and miR-21 reporter -3%.
Screening Cc1ccc2nc(C)c3c(c2c1)COC3 returned Rango dissoc inh 11%, Rango complex inh inconclusive, GLA inh pH 4.5 -4 and miR-21 reporter -10%.
`O=[N+]([O-])c1ccc(Oc2c(F)c(F)nc(N3CCCC3)c2F)cc1` gave Rango dissoc inh 16%, Rango complex inh 3.0%, GLA inh pH 4.5 4 and miR-21 reporter -7%.
Screening CN1CCN(C2=NC3(CCCC3)C(C#N)C(=O)N2)CC1 (configuration not stated) returned Rango dissoc inh -14%, Rango complex inh 4.2%, GLA inh pH 4.5 -3 and miR-21 reporter -1%.
Screening Cc1cccc(NC(=O)c2ccccc2OCC(=O)N2CCCC2)c1C returned GLA inh pH 4.5 -7 and miR-21 reporter -6%.

Source: PubChem BioAssay (National Center for Advancing Translational Sciences (NCATS))
